Vaccinia Venus – vaccinia inhibition (Venus reporter); Potency, µM (series often up to 36.5 µM), without a hit: top-dose activity change, negative = inhibition, actives largely listed as inhibitors; hit rate 0.46% among 330,000; Vaccinia virus Venus reporter expression, fluorescence; active means well fitted inhibition curve with a large enough effect; inconclusive means small, poorly fitted or top-dose-only effect; inactive means no such curve, though single readings can be large or run the other way; tested in A549 cells; further: nearly all actives have a fitted effect of over 30% in size; inactives centre near -10
VACV mCherry inh – vaccinia inhibition (mCherry reporter) | Vaccinia virus mCherry reporter infection, fluorescence; about a quarter of the inactives have no number | Potency, µM (series often up to 36.5 µM), inactives show top-dose activity change, negative = inhibition, actives largely listed as inhibitors | hit rate 0.63% among 310,000 | AID 720579; active = well fitted inhibition curve with a large enough effect; inconclusive = small, poorly fitted or top-dose-only effect; inactive = no such curve, though single readings can be large or run the other way; tested in A549 cells; further: nearly all actives have a fitted effect of over 35% in size; inactives centre near -10
The depositor's hits bear a star; i = inactive; ? = inconclusive; · = no result given; [ ] = dose if it differs, or a comment. On the % scale 0 is the no-effect control and ±100 the full control effect; potency means the concentration at half of the fitted maximal effect.

SMILES	Vaccinia Venus	VACV mCherry inh
Cc1ccccc1NC(=O)c1ccc(OCc2c(C)noc2C)cc1	-24%	-14%
CCOC(=O)c1c(C)[nH]c(C(=O)CSc2nccc(C)n2)c1C	-7%	-9%
COC(=O)C(NC(C)=O)(Nc1nc2ccc(S(C)(=O)=O)cc2s1)C(F)(F)F (centres undefined)	6%	·
COc1ccc(C(=O)c2sc3nc(C)cc(-c4cccs4)c3c2N)cc1OC	-28%	?
Cc1ccc(S(=O)(=O)N2CCC(C(=O)NC3CCCC3)CC2)cc1Cl	-4%	-20%
Cc1cc(C)c(NC(=O)CC(C)(C)C)c(Cl)c1	-7%	·
O=Nc1ccc(/C=C/c2ccnc3ccccc23)cc1	-11%	-14%
CC1CCCCC1NC(=O)CO/N=C/c1ccc(OC(F)F)cc1 (centres undefined)	-14%	-9%
CCOC(=O)N1CCN(C(=O)c2cnn(-c3ccccc3)c2NC(=O)c2ccccc2F)CC1	-2%	-12%
CN(C)c1ccc(CNC(=O)Cn2c(-c3cccs3)cc3cc(Cl)ccc32)cc1	-19%	-21%
COc1ccccc1C(=O)N/C(=C\c1cn(C)c2ccccc12)C(=O)NCCCn1ccnc1	-11%	?
COC(=O)CCCNC(=O)CC1C(=O)NCCN1Cc1ccoc1 (centres undefined)	-9%	i
Cc1ccccc1C(=O)NC(CC(C)C)C(=O)NN1C(=O)c2ccccc2C1=O (centres undefined)	-8%	-20%
CCCCN1C(=O)C2C3C=CC(C2C1=O)C1C2C(=O)N(CCCC)C(=O)C2C31 (centres undefined)	-6%	-12%
CCOc1ccc(-c2oc3ccccc3c(=O)c2O)cc1OCC	-20%	i
CC1(C)O[C@@H]2[C@H](O1)[C@@H](COS(=O)(=O)O)O[C@H]2n1cnc2c(=O)[nH]cnc21	-6%	i
Cc1c(C(=O)N(C)Cc2cscn2)sc2ncnc(NC[C@H]3CCc4ccccc4O3)c12	-3%	3%
COc1ccc(CCNC(=O)CSCc2nc(-c3ccc(OC)c(OC)c3)oc2C)cc1OC	-9%	-6%
CCOc1ncccc1C(=O)NNC(=O)c1csc(N2CCOCC2)n1	-15%	-20%
O=C1c2cccc3c([N+](=O)[O-])ccc(c23)C(=O)N1CCc1ccccn1	1%	?
Cc1cc(/C=N/NC(N)=S)c(C)n1-c1cccc(Cl)c1	-15%	-22%
CCN1CCN(C(=O)c2cc(COc3ccc(F)c(F)c3)on2)[C@@H](C)C1=O	-15%	0%
COc1ccc(/C=N/NC(=O)Cc2csc(Nc3cccc(C(F)(F)F)c3)n2)c(OC)c1	-23%	·
CC1(C(=O)Nc2ccc(Cl)c(C(F)(F)F)c2)Cc2c(-c3ccc4c(c3)OCO4)ccnc2O1 (centres undefined)	-9%	26%
CCCOc1ccc(C(=O)NCCO)cc1	-14%	-3%

Not a retest: 2 of the compounds above.
SMILES	Vaccinia Venus	VACV mCherry inh
CN(C)c1ccc(CNC(=O)Cn2c(-c3cccs3)cc3cc(Cl)ccc32)cc1	-19%	-21%
COc1ccccc1C(=O)N/C(=C\c1cn(C)c2ccccc12)C(=O)NCCCn1ccnc1	-11%	?

7 of the compounds above, with bars between the fields.
Molecule | Vaccinia Venus | VACV mCherry inh
CC1CCCCC1NC(=O)CO/N=C/c1ccc(OC(F)F)cc1 (centres undefined) | -14% | -9%
CCOC(=O)N1CCN(C(=O)c2cnn(-c3ccccc3)c2NC(=O)c2ccccc2F)CC1 | -2% | -12%
CN(C)c1ccc(CNC(=O)Cn2c(-c3cccs3)cc3cc(Cl)ccc32)cc1 | -19% | -21%
COc1ccccc1C(=O)N/C(=C\c1cn(C)c2ccccc12)C(=O)NCCCn1ccnc1 | -11% | ?
COC(=O)CCCNC(=O)CC1C(=O)NCCN1Cc1ccoc1 (centres undefined) | -9% | i
Cc1ccccc1C(=O)NC(CC(C)C)C(=O)NN1C(=O)c2ccccc2C1=O (centres undefined) | -8% | -20%
CCCCN1C(=O)C2C3C=CC(C2C1=O)C1C2C(=O)N(CCCC)C(=O)C2C31 (centres undefined) | -6% | -12%

Going on with the list:
SMILES	Vaccinia Venus	VACV mCherry inh
COc1ccc(OCCCC(=O)Nc2ccc3c(c2)OCCO3)cc1	-16%	-18%
CN1CCN(c2nc3ccccc3c(=O)n2-c2ccccc2)CC1	-14%	-14%
O=C(NCc1ccc(F)cc1)c1ccc2c(c1)S(=O)(=O)c1ccccc1C2=O	-2%	-10%
COc1ccc(S(=O)(=O)N2CCCC2CNC(=O)C(=O)NCc2ccc3c(c2)OCO3)cc1 (centres undefined)	-7%	-22%
CN(C)S(=O)(=O)c1ccc(N2CCCC2)c(C(=O)Nc2nc3ccccc3s2)c1	-13%	?
COc1ccccc1C(=O)OCc1ccc2sc(C)nc2c1	-20%	-9%
CCOC(=O)Cn1c(=O)n(CC2CCCO2)c2nc(-c3ccc(CC)cc3)nc(C(N)=O)c21 (centres undefined)	-22%	-28%
O=C(Nc1ccccc1Cl)C1CCN(c2nc3ccccc3nc2C(F)(F)F)CC1	-10%	-9%
CC(=O)c1ccc(S(=O)(=O)NC2CC(=O)N(c3ccc(C)cc3)C2)cc1 (centres undefined)	-8%	-14%
CC(C)(C)c1ccc(OCCCCCCN2CCNCC2)cc1	-5%[7.34 µM]	-16%[7.34 µM]
CCCc1nc2ccccc2n1CC(O)COc1ccc(C(=O)OC)cc1 (centres undefined)	-10%	-12%
Cc1ccc(CNC(=O)C2CCC(=O)N(Cc3ccc(Cl)cc3)C2)cc1F (centres undefined)	-17%	-3%
Clc1ccc(OCCn2ccnc2)cc1Cl	-15%	i
COP(=O)(OC)C1(Nc2ccc(C)cc2)CCCCC1	-5%	·
Cc1nc(N)nc(-c2ccccc2O)n1	-8%	·
COC(=O)c1cc2occc2n1CC(=O)Nc1ccc(OC)c(OC)c1OC	-8%	i
Cc1c(-n2c(SCC(C)C)nc3ccccc3c2=O)c(=O)n(-c2ccccc2)n1C	-13%	-11%
COC(=O)c1cccc(Nc2c(-c3ccc(O)cc3)nc3nc[nH]n23)c1	-2%	-12%
O=C(Cn1cc(SCc2ccccc2Cl)c2ccccc21)N1CCCCCC1	-13%	i
C=C(C)[C@@H]1CC=C(C(=O)O)CC1	-7%	-12%
CCOc1ccc(NS(=O)(=O)c2ccc(NC(=S)NC(=O)CC(C)C)cc2)cc1	?	·
CCc1cc(=O)oc2cc(C)cc(OCC(=O)N3CCC(C(=O)NC(C)C)(c4ccccc4)CC3)c12	-19%	i
CCOC(=O)C1CCCN(c2cc(C)nc3c(-c4ccccc4OC)c(C)nn23)C1 (centres undefined)	-7%	-3%
COc1ccc(NC(=S)NCc2ccc3c(c2)OCO3)cc1	14%	-13%
C/C(=N\NC(=O)c1cc2c(s1)CCC(C)C2)c1ccncc1 (centres undefined)	-11%	-18%
Carrying on:
SMILES	Vaccinia Venus	VACV mCherry inh
CCN1CCN(c2cc(N3CCN(C(=O)c4ccco4)CC3)c3c4c(onc24)-c2ccccc2C3=O)CC1	217%[activator]	-21%
CCOC(=O)[C@]12CCCC=C1N(CCc1ccc(OC)c(OC)c1)C(=O)[C@H](CC(=O)NCc1ccccc1)C2	-3%	-6%
CCOC(=O)C1C(=O)CC(C)(O)C(C(=O)OCC)C1c1ccc(N(CC)CC)cc1 (centres undefined)	-14%	-14%
Cc1ccc(C)c(NC(=O)CCNS(=O)(=O)c2ccc3c(c2)CCCC(=O)N3)c1	0%	0%
Cc1cc(NC(=O)C2C3C(=O)N(CC4CCCO4)C(C(=O)NC(C)(C)C)C34C=CC2(C)O4)no1 (centres undefined)	-9%	i
CC12CCC(=O)N1C(C(=O)Nc1cccc3ccccc13)CS2 (centres undefined)	1%	i
Nc1nonc1-n1nnc(C(=O)N/N=C/c2ccncc2)c1-c1ccccc1	-4%	-6%
O=C(CSCC(=O)c1ccccc1)Nc1ccccc1Cl	3%	-7%
O=C(CSc1ccc2nnc(-c3ccncc3)n2n1)Nc1ccccc1F	-6%	-14%
COc1ccccc1-n1cnc2cc(NCc3cccs3)ccc21	?	?
CN1C(=O)NC(=O)/C(=C\C=C\c2ccccc2[N+](=O)[O-])C1=O	-7%	-26%
COc1ccc(C(=O)N/N=C/c2sc3ccccc3c2O)cc1	?	?
CC(C)CN(C(=O)COC(=O)C12CC3CC(CC(Cl)(C3)C1)C2)c1c(N)n(Cc2ccccc2)c(=O)[nH]c1=O	-12%	i
O=C(NC1CCCCC1)C(c1ccccc1)N1CCCC1 (centres undefined)	-3%	-1%
O=C(O)CC(CC(=O)N1CCN(C(=O)c2ccco2)CC1)c1ccccc1 (centres undefined)	-9%	i
O=C(NCC1CCCCC1)C1(CC2CC(c3ccc(Cl)cc3)=NO2)CCNCC1 (centres undefined)	-27%	-19%
COc1ccc(CN2C(=O)C(C)Nc3ncnc(N4CCN(c5ccccc5)CC4)c32)cc1 (centres undefined)	?	?
CCOc1ccc(NS(=O)(=O)c2ccc3[nH]cc(C(=O)NCc4ccco4)c(=O)c3c2)cc1	-8%	-5%
CCN(CC)S(=O)(=O)c1cc(NC(=O)CN2CCN(c3ccccn3)CC2)ccc1C	-23%	-12%
COc1cc(NC(=O)c2cccc3c2C(=O)N(C2CCCCC2)C3)cc(OC)c1	-5%	-11%
COc1ccc(N2CCN(S(=O)(=O)c3ccc4c(c3)CCCC4)CC2)c([N+](=O)[O-])c1	?	-13%
COc1ccc(N2CCN(C(=O)COc3cccc4ccccc34)CC2)cc1	-19%	-5%
CCOc1ccc(N=Cc2c(C)[nH]n(-c3nc4ccccc4[nH]3)c2=O)cc1	3%	-12%
O=C(NCCCc1ccncc1)C1CCC(=O)N(Cc2cccc(F)c2)C1 (centres undefined)	22%[7.34 µM]	3%[7.34 µM]
O=C(CSc1nnc(NC(=O)C2CCC2)s1)Nc1ccccc1Br	-1%	2%

Compound profiles, from the list above. Order of values: Vaccinia Venus, VACV mCherry inh
Record of COc1ccc(N2CCN(C(=O)COc3cccc4ccccc34)CC2)cc1 → -19%, -5%
Record of CCN1CCN(c2cc(N3CCN(C(=O)c4ccco4)CC3)c3c4c(onc24)-c2ccccc2C3=O)CC1 → 217%[activator], -21%
Record of Nc1nonc1-n1nnc(C(=O)N/N=C/c2ccncc2)c1-c1ccccc1 → -4%, -6%

Next part.
SMILES	Vaccinia Venus	VACV mCherry inh
CC(=O)Nc1ccc(CNc2nc(NC(C)C)nc3cc(-c4ccccc4)sc23)cc1	11µM*	?
Cc1c(Cl)cccc1NC(=O)c1ccc(OCC(=O)NCc2ccccc2)cc1	-26%	-5%
Cc1c(Cl)cccc1NC(=O)C(=O)NCCc1csc(-c2ccc(C(F)(F)F)cc2)n1	-15%	-15%
CC(=O)Nc1ccc(Nc2ccc(N3C(=O)CCCC3=O)cc2[N+](=O)[O-])cc1	-3%	i
CC(=O)Nc1ccc(Nc2c([N+](=O)[O-])cc(S(C)(=O)=O)cc2[N+](=O)[O-])cc1	-18%	-9%
O=C(NCc1ccccc1)c1ccccc1-c1nc2ccccc2[nH]1	2%	2%
CC(=O)c1ccc(OCc2ccccc2)c(C)c1O	-11%	-3%
COc1ccc(-c2csc(NC(=O)C(CC(=O)O)N3CCOCC3)n2)cc1 (centres undefined)	-3%	-2%
COc1ccc(/C=N/NC(=O)c2ccco2)cc1Cn1nc(C)c([N+](=O)[O-])c1C	?	-24%
Oc1ccc(C[C@H]2CNC(=S)N2CC2CCCN2C[C@H](Cc2ccc(O)cc2)N2C[C@H](Cc3ccccc3)N(CCc3ccccc3)C2=S)cc1 (some centres undefined)	?	?
CCN(CC)CCOC(=O)c1ccc(N/C=C(/C#N)c2nc(-c3ccc4c(c3)OCO4)cs2)cc1	0%[7.34 µM]	-9%[7.34 µM]
C[C@H](CO)N1C[C@H](C)[C@@H](CN(C)S(=O)(=O)c2cn(C)cn2)Oc2c(NC(=O)Nc3ccc(C(F)(F)F)cc3)cccc2C1=O	-27%	-14%
Cc1ccc(NC(=S)NCCc2ccc(F)cc2)c(C)c1	0%	-17%
CCN(Cc1cccc(F)c1)C(=O)c1ccc2ccccc2n1	5%	-6%
Cc1ccc(C)c(NC(=O)CN2CCSc3ccc(S(=O)(=O)N4CCCC4)cc32)c1	3%	-1%
O=C(NCCCn1ccnc1)c1nc(Cn2cc([N+](=O)[O-])cn2)no1	-4%	-17%
N#Cc1nc(COc2ccc(-c3ccccc3)cc2)oc1NCc1cccnc1	?	-24%[1.46 µM]
COc1ccc(N2CCN(C(=O)COc3ccccc3)CC2)cc1	-17%	-24%
O=C(Nc1ccccc1F)c1cc(S(=O)(=O)N2CCOCC2)ccc1N1CCOCC1	-8%	-15%
CCN(CC(=O)Nc1ccc(NC(C)=O)cc1)C(=O)c1cccc(-n2cccc2)c1	-11%	-22%
Cc1[nH]n2c(=O)cc(-c3ccccc3Cl)nc2c1-c1ccccc1	-29%	?
Cc1cc(CC(=O)O)c(C)cc1CC(=O)O	-13%	·
O=c1[nH]c(Nc2ccccc2Cl)cc2ccccc12	-20%	-13%
COc1ccc(C(=O)CC(c2ccccc2)C2CCCCC2=O)cc1 (centres undefined)	-7%	-15%
CCOC(=O)C1CCN(c2nc3c(S(=O)(=O)c4ccc(CC)cc4)nnn3c3ccc(Cl)cc23)CC1	-16%	-21%
COc1ccccc1NC(=O)c1ccc(-n2cncn2)nc1	-7%	i

3 structures from above, sorted by SMILES length, descending:
SMILES	Vaccinia Venus	VACV mCherry inh
COc1ccc(/C=N/NC(=O)Cc2csc(Nc3cccc(C(F)(F)F)c3)n2)c(OC)c1	-23%	·
CC(=O)c1ccc(S(=O)(=O)NC2CC(=O)N(c3ccc(C)cc3)C2)cc1 (centres undefined)	-8%	-14%
COc1ccc(C(=O)c2sc3nc(C)cc(-c4cccs4)c3c2N)cc1OC	-28%	?
